High-throughput results from PubChem BioAssay.
AF4-AF9 inh – inhibitors of human MLL-AF4/AF9 interaction | P42568 | AlphaScreen, biotin-AF4 peptide binding to FLAG-AF9 | inhibition, % at 10 µM | 350,000 compounds, 0.47% hits | AID 651704;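 active = every replicate reaching a set inhibition limit, whatever the replicate mean, cut at about 25% in these data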;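 also: 0% = plate neutral control median and 100% = total signal loss; the record names both 10 and 1 µM as test concentration; the first replicate is given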
HNF4A DNA FP – change in binding of human HNF4 alpha to DNA; P41235; HNF4a-FITC DNA binding, fluorescence polarization, 1 h; activity change, % at 10 µM; 360,000 compounds, 0.3% hits; AID 1224865; in the data active = activity change above about 30%, passing the limit was not always enough;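 also: controls were the assay level and a saturating level of protein; the project sought stronger binding though the title names inhibitors; some compounds called inactive have numbers as strong as hits; positive values seem to mean higher polarization but the record does not say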
Target sequence (P41235 whole entry, looked up): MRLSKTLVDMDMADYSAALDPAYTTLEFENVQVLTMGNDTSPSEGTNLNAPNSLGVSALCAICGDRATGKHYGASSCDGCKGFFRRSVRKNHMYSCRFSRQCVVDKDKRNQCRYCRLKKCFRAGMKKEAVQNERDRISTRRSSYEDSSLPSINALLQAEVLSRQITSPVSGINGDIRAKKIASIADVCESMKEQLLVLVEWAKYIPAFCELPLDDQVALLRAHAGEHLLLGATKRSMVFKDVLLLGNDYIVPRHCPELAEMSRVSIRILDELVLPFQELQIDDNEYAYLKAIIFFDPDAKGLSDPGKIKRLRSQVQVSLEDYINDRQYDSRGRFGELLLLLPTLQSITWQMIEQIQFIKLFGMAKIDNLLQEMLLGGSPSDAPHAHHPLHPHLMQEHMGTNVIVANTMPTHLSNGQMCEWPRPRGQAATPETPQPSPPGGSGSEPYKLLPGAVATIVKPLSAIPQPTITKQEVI
Vif A3G – HIV-1 Vif–A3G interaction blockers – biochemical, TR-FRET, GST-Vif 1-94, biotin-A3G peptide, dose response retest, primary screen (AID 1117319). TR-FRET GST-Vif / biotin-A3G peptide binding; higher % means a stronger effect; test concentration not given here; strong numbers were not always called active. inhibition, %; hits with a dose series show IC50 in µM. 260,000 compounds, 0.57% hits;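 active = above the screen mean plus three standard deviations and confirmed in dose response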;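 also: Vif residues 1-94 fused to GST binding biotinylated APOBEC3G peptide 110-148; 0% = full assay without inhibitor and 100% = GST in place of GST-Vif; retest series ran down from 100 µM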
E coli growth – E. coli growth inhibition; Escherichia coli growth, OD600, 23 h; stronger effect = lower value; OD600 absorbance (test concentration not listed); 330,000 compounds, 0.21% hits;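 active = OD600 absorbance below the run mean of sample wells minus 3.6 SD, in any replicate, cut at about 0.56 in these data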;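 also: stock transfer was 300 nL into about 60 µL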
rRNA inh HTS – inhibitors of bacterial rRNA selective over humanized ribosomes; E. coli WT GFP vs humanized-ribosome RFP mutants, fluorescence, 24 h; stronger effect = lower value; DMSO median 0, no signal -100; GFP signal change (wild-type ribosome), % (test concentration not listed); 350,000 compounds, 1.6% hits;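 active = significant combined selectivity score with lowered wild-type GFP, culture density cut under 30%, mutant RFP and density less affected; inactive = any of these conditions unmet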; also: one replicate is shown; some compounds called inactive have numbers as strong as hits
FGF22 binding – binders of recombinant human FGF22 by thermal shift; Q9HCT0; SYPRO orange fluorescence; percent of sucrose octasulfate shift, DMSO zero; calls only at 9.99 µM; 340,000 compounds, 1.5% hits;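 active = melting point raised past a set limit in the mean and every replicate; three in four hits are not shown here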
Target sequence (Q9HCT0 whole entry, looked up): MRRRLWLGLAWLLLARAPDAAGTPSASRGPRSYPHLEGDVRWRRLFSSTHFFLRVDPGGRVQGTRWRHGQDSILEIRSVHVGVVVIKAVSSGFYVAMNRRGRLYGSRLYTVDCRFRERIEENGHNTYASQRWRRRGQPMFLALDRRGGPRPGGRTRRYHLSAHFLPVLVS
ALR inh – inhibitors of human sulfhydryl oxidase ALR; 290,000 compounds, 3.8% hits; purified ALR, DTT oxidation, H2O2 HRP-luminol luminescence; inhibition, % (no concentration beside the values);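 active = mean and each replicate at 75% or more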;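 also: stock transfer was 7.5 nL into about 7.5 µL; 0% = neutral wells and 100% = wells with inactivated enzyme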
Target sequence (P55789 whole entry, looked up): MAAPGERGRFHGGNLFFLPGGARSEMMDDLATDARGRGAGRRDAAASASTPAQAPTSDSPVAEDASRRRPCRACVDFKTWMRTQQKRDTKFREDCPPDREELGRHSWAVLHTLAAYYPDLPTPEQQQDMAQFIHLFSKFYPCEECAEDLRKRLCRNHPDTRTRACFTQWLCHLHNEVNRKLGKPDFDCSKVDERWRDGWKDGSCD
rRNA inh HTS OD600 – further read-out of rRNA inh HTS, marked with its call; OD600 change, %; measured here: OD600 growth;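 optical density of the mix in the first replicate; 0 = DMSO median and -100 = no signal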
rRNA inh HTS RFP – recorded beside rRNA inh HTS, whose call it bears; RFP signal change, %; measured here: RFP humanized mutant strains;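 first replicate; 0 = DMSO median and -100 = no signal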
Numbers without * were called inactive; & = joins results of further samples.

For CC(=O)c1sccc1NC(=O)c1ccccc1C(=O)O the results were AF4-AF9 inh 8.4, HNF4A DNA FP -1.8, rRNA inh HTS 12, FGF22 binding inactive, ALR inh -9, rRNA inh HTS OD600 -3 and rRNA inh HTS RFP 1.4.
Screening O=C(OCc1cc(=O)n2ccsc2n1)C1(c2ccccc2)CC1 returned AF4-AF9 inh 1.7, HNF4A DNA FP 1.6, rRNA inh HTS 11, FGF22 binding inactive, rRNA inh HTS OD600 13 and rRNA inh HTS RFP 2.8.
Cc1cccc(N(CC(=O)N/N=C/c2ccccc2C(=O)O)S(C)(=O)=O)c1C was read as AF4-AF9 inh -3.0, HNF4A DNA FP 3.4, Vif A3G 2%, rRNA inh HTS 8, FGF22 binding inactive, ALR inh 1, rRNA inh HTS OD600 -1 and rRNA inh HTS RFP -1.2.
For COc1ccc(NC(=O)C2CCC(CNS(=O)(=O)c3cccs3)CC2)cc1 (centres undefined) the results were AF4-AF9 inh -2.4, HNF4A DNA FP -2.0, Vif A3G -2%, E coli growth 0.69, rRNA inh HTS 8, FGF22 binding inactive, ALR inh -9, rRNA inh HTS OD600 9 and rRNA inh HTS RFP 2.1.
`COc1ccc(C(CC(=O)N2CCCCC2)NC(=O)C(F)(F)F)cc1` (centres undefined) gave AF4-AF9 inh -2.7, HNF4A DNA FP 5.6, Vif A3G 6%, E coli growth 0.71, rRNA inh HTS -1, FGF22 binding inactive, ALR inh -11, rRNA inh HTS OD600 -31 and rRNA inh HTS RFP -8.5.
COc1ccc(OC)c(Nc2cc(C)c3ccccc3n2)c1 was read as AF4-AF9 inh 14, HNF4A DNA FP 3.1, Vif A3G -2%, E coli growth 0.65, rRNA inh HTS -12, FGF22 binding inactive, ALR inh -36, rRNA inh HTS OD600 -9 and rRNA inh HTS RFP -2.3.
O=C(Nc1ccc(F)cc1)N1CCCCN2[C@H](C1)[C@H](c1ccc(-c3ccncc3)cc1)[C@@H]2CO was read as AF4-AF9 inh -2.7, rRNA inh HTS -3, FGF22 binding inactive, rRNA inh HTS OD600 7 and rRNA inh HTS RFP -2.3.
For CCCOc1ccc(C(=O)CCN2CCCCC2)cc1 the results were HNF4A DNA FP 1.2, Vif A3G -3%, E coli growth 0.77 and ALR inh 7.
`Brc1ccc(/C=N/Nc2ccccc2)cc1` gave AF4-AF9 inh -4.1, HNF4A DNA FP -3.1, Vif A3G 25%, FGF22 binding inactive and ALR inh 11.
`O=C(c1cc(F)ccc1F)C1CCCN(C(=O)c2ccco2)C1` (centres undefined) gave AF4-AF9 inh -0.9, HNF4A DNA FP 0.1, Vif A3G -2%, E coli growth 0.72, rRNA inh HTS 2, FGF22 binding inactive, rRNA inh HTS OD600 -6 and rRNA inh HTS RFP -1.0.
N#Cc1nc(COc2ccccc2)oc1N1CCC(Cc2ccccc2)CC1 was read as HNF4A DNA FP 0.5, Vif A3G 12%, E coli growth 0.74 and ALR inh 1.
For COCc1cc(C)[nH]c(=O)c1C#N the results were HNF4A DNA FP -0.4, Vif A3G 12%, E coli growth 0.78 and ALR inh 0.
Screening CC(Oc1ccc2c(-c3ccccc3)cc(=O)oc2c1)C(=O)NCC1CCC(C(=O)O)CC1 (centres undefined) returned AF4-AF9 inh -0.1&1.0, HNF4A DNA FP -1.9&3.6, E coli growth 0.72&0.69, rRNA inh HTS -7, FGF22 binding inactive, ALR inh -2, rRNA inh HTS OD600 -4 and rRNA inh HTS RFP -5.7.
Screening CCC(C)(C)c1ccc(Oc2ccc(N)cc2)cc1 returned AF4-AF9 inh 6.1, HNF4A DNA FP -2.9, E coli growth 0.68, rRNA inh HTS -47, FGF22 binding inactive, rRNA inh HTS OD600 -76 and rRNA inh HTS RFP -6.9.
For COc1ccc(C(=O)N/N=C/c2ccc3cccc(OCc4ccccc4)c3n2)cc1 the results were HNF4A DNA FP 1.6, Vif A3G 3% and ALR inh -1.
`CC(=O)c1cccc(NC(=O)CCn2c(=S)oc3ccccc32)c1` gave AF4-AF9 inh -0.5, HNF4A DNA FP 4.6, Vif A3G -15%, E coli growth 0.69, rRNA inh HTS 12, FGF22 binding inactive, ALR inh 10, rRNA inh HTS OD600 5 and rRNA inh HTS RFP -1.8.
CC(=O)c1ccc(OCC(=O)NC2CCCN(Cc3ccccc3F)C2)cc1 (centres undefined) was read as AF4-AF9 inh 0.0, HNF4A DNA FP 4.5, E coli growth 0.71, rRNA inh HTS 0, FGF22 binding inactive, rRNA inh HTS OD600 -3 and rRNA inh HTS RFP -2.2.
`N#C/C(=C/c1ccc(N2CCOCC2)o1)C(=O)Nc1ccccc1` gave AF4-AF9 inh 0.9, HNF4A DNA FP 210, Vif A3G 8%, E coli growth 0.72, rRNA inh HTS 32, FGF22 binding inactive, rRNA inh HTS OD600 -9 and rRNA inh HTS RFP 12.
For O=C1NCCCC1C(=O)N1CCCCC1 (centres undefined) the results were AF4-AF9 inh -0.9, HNF4A DNA FP 1.5, E coli growth 0.64, rRNA inh HTS 18, ALR inh -6, rRNA inh HTS OD600 12 and rRNA inh HTS RFP 1.7.
Cn1nc(-c2ccccc2)c(CO)c1Oc1cccc(C(F)(F)F)c1 was read as AF4-AF9 inh -1.6, HNF4A DNA FP -0.8, Vif A3G -4%, E coli growth 0.7, rRNA inh HTS 4, FGF22 binding inactive, ALR inh -4, rRNA inh HTS OD600 0 and rRNA inh HTS RFP -2.1.
COC(=O)Cc1ccc(Oc2ncc(C(F)(F)F)cc2Cl)cc1 was read as AF4-AF9 inh -1.6, HNF4A DNA FP 3.8, Vif A3G 2%, E coli growth 0.59, rRNA inh HTS -12, FGF22 binding inactive, ALR inh 0, rRNA inh HTS OD600 -12 and rRNA inh HTS RFP -5.1.
For O=C1OC(c2cccc3c(F)cccc23)c2ccccc21 (centres undefined) the results were AF4-AF9 inh 1.4, HNF4A DNA FP 6.8, Vif A3G 6%, rRNA inh HTS -48, FGF22 binding inactive, rRNA inh HTS OD600 -70 and rRNA inh HTS RFP -9.6.
`CO[C@H]1CN(C)C(=O)c2ccc(NS(=O)(=O)c3cccc(C)c3)cc2OC[C@H](C)NC[C@@H]1C` gave AF4-AF9 inh 0.1, rRNA inh HTS 0, FGF22 binding inactive, rRNA inh HTS OD600 0 and rRNA inh HTS RFP 1.7.
CCOC(=O)c1ccccc1NC(=O)COc1coc(CN2CCc3ccccc32)cc1=O was read as AF4-AF9 inh -6.2, HNF4A DNA FP -1.8, Vif A3G -2%, E coli growth 0.65, rRNA inh HTS -8, FGF22 binding inactive, ALR inh 51, rRNA inh HTS OD600 -33 and rRNA inh HTS RFP 3.6.
Screening C[C@@H]1CCCCO[C@@H](CN(C)C(=O)Nc2ccccc2)[C@@H](C)CN([C@H](C)CO)C(=O)c2cc(NC(=O)Nc3ccc(F)cc3)ccc2O1 returned AF4-AF9 inh 0.9, rRNA inh HTS 0, FGF22 binding inactive, rRNA inh HTS OD600 3 and rRNA inh HTS RFP 0.0.
Screening CCn1nnnc1NC(=O)c1cc(OC)c(OC)c(OC)c1 returned AF4-AF9 inh -0.5, HNF4A DNA FP -16, rRNA inh HTS -2, FGF22 binding inactive, ALR inh -12, rRNA inh HTS OD600 4 and rRNA inh HTS RFP 0.2.
`COCCOC(=O)c1c(C)n(C)c2ccc(OC(=O)c3c(OC)cccc3OC)cc12` gave AF4-AF9 inh -4.6, HNF4A DNA FP 0.1, Vif A3G -6%, E coli growth 0.64, rRNA inh HTS 1, FGF22 binding inactive, ALR inh -4, rRNA inh HTS OD600 9 and rRNA inh HTS RFP 9.4.
`CS(=O)(=O)c1cccc(C(=O)N(CCc2ccccc2)Cc2cccs2)c1` gave AF4-AF9 inh 0.3, HNF4A DNA FP 2.0, E coli growth 0.7, rRNA inh HTS -7, FGF22 binding inactive, ALR inh -4, rRNA inh HTS OD600 -16 and rRNA inh HTS RFP 0.9.
For CC(=O)c1ccc(NC(=O)CN2C(=O)/C(=C/C=C/c3ccccc3)SC2=S)cc1 the results were AF4-AF9 inh -5.7, HNF4A DNA FP 23, Vif A3G 4%, rRNA inh HTS 9, FGF22 binding active, rRNA inh HTS OD600 15 and rRNA inh HTS RFP 9.0.
For C[C@@H]1CN([C@H](C)CO)C(=O)c2cc(C3=CCCCC3)cnc2O[C@@H]1CN(C)C(=O)Cc1ccccc1 the results were AF4-AF9 inh -4.7, rRNA inh HTS -2, FGF22 binding inactive, rRNA inh HTS OD600 10 and rRNA inh HTS RFP -0.7.
O=C(CCNC(=O)c1ccc(Cl)cc1)NCc1cccc(C(F)(F)F)c1 was read as AF4-AF9 inh -0.7, HNF4A DNA FP -2.4, Vif A3G 2%, E coli growth 0.63, rRNA inh HTS -10, FGF22 binding inactive, ALR inh -2, rRNA inh HTS OD600 -12 and rRNA inh HTS RFP -5.5.
`COc1ccc(-c2ccccc2[C@@H]2[C@H](C#N)N(C(=O)C3CCC3)[C@H]2CO)cc1` gave AF4-AF9 inh 0.6, rRNA inh HTS -8, FGF22 binding inactive, rRNA inh HTS OD600 -10 and rRNA inh HTS RFP -0.2.
`Cc1cc(C)cc(N2C(=O)CC(n3nc(C)cc3C)C2=O)c1` (centres undefined) gave HNF4A DNA FP 0.9, Vif A3G 3%, E coli growth 0.71 and ALR inh -3.
Screening COc1ccc(S(=O)(=O)NC(=O)C2(C)CCN2C(=O)Cc2ccc(-c3ccccc3)cc2)cc1 (centres undefined) returned AF4-AF9 inh 0.8, HNF4A DNA FP -1.4, rRNA inh HTS -23, FGF22 binding inactive, rRNA inh HTS OD600 -26 and rRNA inh HTS RFP -1.5.
Screening CCOC(=O)[C@@H]1[C@H]2COc3ccccc3[C@@H]2N2C(=O)N(c3cccc(C)c3)C(=O)[C@]12C returned AF4-AF9 inh -0.3, HNF4A DNA FP -0.3, rRNA inh HTS 10, FGF22 binding inactive, ALR inh -5, rRNA inh HTS OD600 0 and rRNA inh HTS RFP -3.2.
Screening O=C(OCc1cn([C@@H]2CN(Cc3cccs3)[C@@H](c3ccc(Cl)cc3)C[C@H]2O)nn1)c1ccccc1 returned AF4-AF9 inh -1.7, HNF4A DNA FP 3.7, Vif A3G -1%, rRNA inh HTS 6, FGF22 binding inactive, rRNA inh HTS OD600 3 and rRNA inh HTS RFP -0.8.
`NNC(=O)C1CC1c1ccc(Cl)cc1` (centres undefined) gave AF4-AF9 inh 3.8, HNF4A DNA FP -2.8, Vif A3G -1%, E coli growth 0.71, rRNA inh HTS -12, FGF22 binding inactive, ALR inh -5, rRNA inh HTS OD600 -23 and rRNA inh HTS RFP -2.0.

Structural class, the compounds so far with four or more nitrogen atoms (4)
O=C(Nc1ccc(F)cc1)N1CCCCN2[C@H](C1)[C@H](c1ccc(-c3ccncc3)cc1)[C@@H]2CO was read as AF4-AF9 inh -2.7, rRNA inh HTS -3, FGF22 binding inactive, rRNA inh HTS OD600 7 and rRNA inh HTS RFP -2.3.
Screening C[C@@H]1CCCCO[C@@H](CN(C)C(=O)Nc2ccccc2)[C@@H](C)CN([C@H](C)CO)C(=O)c2cc(NC(=O)Nc3ccc(F)cc3)ccc2O1 returned AF4-AF9 inh 0.9, rRNA inh HTS 0, FGF22 binding inactive, rRNA inh HTS OD600 3 and rRNA inh HTS RFP 0.0.
Screening CCn1nnnc1NC(=O)c1cc(OC)c(OC)c(OC)c1 returned AF4-AF9 inh -0.5, HNF4A DNA FP -16, rRNA inh HTS -2, FGF22 binding inactive, ALR inh -12, rRNA inh HTS OD600 4 and rRNA inh HTS RFP 0.2.
Screening O=C(OCc1cn([C@@H]2CN(Cc3cccs3)[C@@H](c3ccc(Cl)cc3)C[C@H]2O)nn1)c1ccccc1 returned AF4-AF9 inh -1.7, HNF4A DNA FP 3.7, Vif A3G -1%, rRNA inh HTS 6, FGF22 binding inactive, rRNA inh HTS OD600 3 and rRNA inh HTS RFP -0.8.

Only part of the results is shown; rates above refer to the full screens.
